Screening data deposited in PubChem by several laboratories.
MT1-MMP reporter – MT1-MMP gene expression reporter suppression – cell-based, luciferase reporter, luminescence (AID 618); MT1-MMP promoter luciferase reporter cells, luminescence; calls from a first round at 10 µM; hits with a dose series show EC50 in µM; 87,000 compounds, 0.62% hits;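 active means over half of the reporter light lost at 10 µM or EC50 under 50 µM; inactive means the rest and hits that failed the dose series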;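 further: actives suppress MT1-MMP promoter-driven transcription so potencies describe inhibitors; HT1080 fibrosarcoma cells; overnight exposure; toxic or luciferase-blocking compounds were not removed from the actives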
WNV NS2B-NS3 inh – WNV NS2B-NS3 proteinase inhibition. 65,000 compounds, 0.18% hits. WNV NS2B-NS3 protease, fluorogenic substrate Ex360/Em465; active compounds read low. z-score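 (tested at a level between 10 and 100 µM)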. P06935;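 active means z-score at -3 or under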;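 further: score is relative to mean and spread of the compound wells of a plate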
Target sequence (P06935 1371-1501 limits assumed): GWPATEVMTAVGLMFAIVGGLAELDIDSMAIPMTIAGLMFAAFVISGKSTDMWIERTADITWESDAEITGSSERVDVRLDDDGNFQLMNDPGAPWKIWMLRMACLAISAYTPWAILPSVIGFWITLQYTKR
Target sequence (P06935 1502-1679 limits assumed): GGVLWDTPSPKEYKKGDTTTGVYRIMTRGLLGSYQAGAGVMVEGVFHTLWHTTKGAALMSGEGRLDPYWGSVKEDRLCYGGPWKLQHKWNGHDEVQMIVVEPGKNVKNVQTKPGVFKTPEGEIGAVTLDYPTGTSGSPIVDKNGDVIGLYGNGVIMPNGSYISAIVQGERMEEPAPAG
Hsc70 – small molecules displacing fluorescent ligand from Hsc70 – biochemical, fluorescence polarization, primary screen (AID 568) | Hsc70 fluorescence polarization, probe displacement; higher % means a stronger effect; strong numbers were not always called active | 83,000 tested, under 10 active | displacement, % at 20 µM; hits with a dose series show IC50 in µM;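 active means displacement above 50% without optical interference and an IC50 on retest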;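 further: ATPase domain with a fluorescein-tagged ATP probe; 0% = vehicle and 100% = excess ADP; read after one hour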
Numbers without * were called inactive; i = inactive; · = not tested or not shown. Not all compounds are listed. The share of hits here may be higher or lower than overall.

SMILES	MT1-MMP reporter	WNV NS2B-NS3 inh	Hsc70
CCC(C)(C)n1nnnc1CN(Cc1ccco1)Cc1cc2cc3c(cc2[nH]c1=O)OCO3	i	0.42	-2.5%
CCCCNC(=O)C1CC(=O)N(C2CCCCC2)C1 (stereo unspecified)	i	-0.66	5.7%
CCOc1cc(CN2CCN(C(=O)c3ccco3)CC2)ccc1OC	i	0.34	9.6%
CC(Sc1nc2nn(-c3ccccc3)c(=O)c-2c2n1CCCCC2)C(N)=O (stereo unspecified)	i	·	-42%
Cc1cc2nnc(SCC(=O)NCc3cccs3)n2c(N)n1	i	-0.98	-3.3%
C/C(=N\O)c1ccc2c3ccccc3n(C)c2c1	i	1.9	0.1%
COC(=O)CCC(=O)Nc1ccccc1C(=O)Nc1ccccc1	i	·	6.4%
CCn1c(SCC(=O)Nc2ccccc2N2CCOCC2)nnc1-c1ccccc1O	i	0.26	-4.0%
CCOC(=O)c1c(NC(=O)COc2ncnc3sccc23)sc2c1CCC2	i	-1.8	-1.6%
Cc1cccc(OCCn2c(S(=O)(=O)O)nc3ccccc32)c1	i	·	3.1%
COc1nc(-c2ccc(Cl)cc2)ccc1-c1noc(-c2ccncc2)n1	i	-0.64	-22%
O=C(CCNC(=O)c1ccco1)NCc1ccccc1	i	·	-0.2%

Next section, overlapping the part above by five compounds.
SMILES	MT1-MMP reporter	WNV NS2B-NS3 inh	Hsc70
CCn1c(SCC(=O)Nc2ccccc2N2CCOCC2)nnc1-c1ccccc1O	i	0.26	-4.0%
CCOC(=O)c1c(NC(=O)COc2ncnc3sccc23)sc2c1CCC2	i	-1.8	-1.6%
Cc1cccc(OCCn2c(S(=O)(=O)O)nc3ccccc32)c1	i	·	3.1%
COc1nc(-c2ccc(Cl)cc2)ccc1-c1noc(-c2ccncc2)n1	i	-0.64	-22%
O=C(CCNC(=O)c1ccco1)NCc1ccccc1	i	·	-0.2%
Cc1cc(NC(=O)CSC2=Nc3ccccc3C3=NC(Cc4ccccc4)C(=O)N23)n[nH]1 (stereo unspecified)	i	0.27	-2.3%
CC(C)(C)C1CCc2onc(C(=O)N3CCOCC3)c2C1 (stereo unspecified)	i	-0.81	7.0%
COc1nc(OC)nc(N2CCC(C(=O)NC3CCCCCC3)CC2)n1	i	0.43	1.2%
CCCc1nc2n[nH]c(N)c2c2c1CCCC2	i	2.6	0.3%
COc1ccccc1Cn1c(=S)[nH]c2cc(C(=O)N3CCN(C)CC3)ccc2c1=O	i	1.6	-3.8%
O=c1oc2ccccc2c(O)c1/C=N/c1ccccn1	i	1.3	-2.2%
CCOC(=O)C1CCN(C(=O)CC(C)c2ccccc2)CC1 (stereo unspecified)	i	0.9	-0.3%
O=C(CCn1ccc2ccccc21)NC1CCCc2ccccc21 (stereo unspecified)	i	·	-2.4%
COc1cc(C(=S)N2CCCC2)cc(Cl)c1O	i	-1	12%
COc1cccc(OC)c1C(=O)N1CCN(Cc2ccncc2)CC1	i	-0.83	1.8%
Cc1ccc(-n2ccnc2SCC(=O)O)c(C)c1	i	·	7.4%
Cc1nnc(NC(=O)c2ccc(S(=O)(=O)N(C)Cc3ccccc3)cc2)o1	i	2.7	-2.1%
COCCn1nnnc1C(c1cccc(C#N)c1)N1CCCCCC1 (stereo unspecified)	i	0.87	-1.0%
CC(C)(C)c1nc(CN2CCOCC2)cc(CN2CCOCC2)c1O	i	·	-4.7%
CCOCC(=O)Nc1c(C(=O)Nc2ccccc2OC)oc2ccccc12	i	1.4	1.0%
N#C/C(=C1/CCCCCN1)c1nc2ccccc2[nH]1	i	-0.19	-9.5%
COc1ccccc1NC(=O)CN(Cc1ccco1)C(=O)c1ccc(-n2nc(C)cc2C)cc1	i	0.1	-1.5%
O=C(NCc1ccc(F)cc1)C1CCN(C(=O)NCc2ccccc2)CC1	i	-1.1	3.4%
CCC1CCCCN1C(=O)CSc1nc(N)c(NC(=O)c2ccco2)c(=O)[nH]1 (stereo unspecified)	i	1.6	-2.3%
c1ccc(N2CCN(c3nc(NCc4ccco4)c4ccccc4n3)CC2)cc1	i	-0.06	-12%
O=c1c2ccccc2[nH]c(=S)n1CC1CCCO1 (stereo unspecified)	i	·	1.3%
C/[N+]([O-])=C\c1coc2ccccc2c1=O	i	·	4.5%
O=c1[nH]c(CN2CCCCC2)nc2ccccc12	i	·	-2.1%
Cc1cc(C)c(NC(=O)CS(=O)CC(=O)Nc2cccnc2)c(C)c1 (stereo unspecified)	i	0.46	-3.1%
O=C(O)CCCC(=O)N1CCN(C(c2ccccc2)c2ccccc2)CC1	i	1.6	6.0%
O=C(CCC1CC(=O)Nc2ccccc21)NCc1cccnc1 (stereo unspecified)	i	-0.73	1.9%
OCCN1CCOCCOCCN(CCO)CCN(CCO)CC1	i	·	-2.7%
O=C(CCCN1C(=O)c2ccccc2C1=O)N1CCN(c2ccccn2)CC1	i	-0.58	2.6%
Cc1ccc(CSc2nc3c(c(=O)[nH]2)CCC3)cc1	i	-0.98	-4.4%
COC(=O)C1CCN(c2cc(=O)n(Cc3ccc(F)cc3)c(=O)[nH]2)CC1	i	-1.2	5.0%
Cc1cc(C)cc(OC(=O)CCN2C(=O)c3ccccc3C2=O)c1	i	·	-4.2%
Cn1c(=O)cc(SCC(=O)N2CCOCC2)c2ccc(Cl)cc21	i	0.18	0.9%
CCCCn1c(C(C)NC(=O)c2cccs2)nc2ccccc21 (stereo unspecified)	i	-0.67	-3.1%
CCCC1(CCC)NC(=O)N(CC(=O)Nc2ccccc2OC)C1=O	i	1.7	4.0%
O=C(NC1CCCC1)c1cc2c(ccc3ccccc32)o1	i	·	8.5%
c1ccc2c(c1)nc(N1CCOCC1)c1nnnn12	i	0.87	21%
CCCS(=O)(=O)N1CCN(Cc2ccccc2OCC)CC1	i	1.8	1.6%
CCCc1[nH]nc2c1C(c1ccc(O)cc1OCC)C(C#N)=C(N)O2 (stereo unspecified)	i	1	-3.4%
CCCOc1c(Br)cc(C(=O)NCC)cc1OC	i	2.3	0.1%
CCCCN(CC)CCNC(=O)c1cc2c(=O)n(C)c3ccccc3c2n1C	i	-0.13	-1.0%
COc1ccc(CNC(=O)CN(CC2CCCO2)C(=O)CNS(=O)(=O)c2ccc(C)cc2)cc1 (stereo unspecified)	i	1.9	-2.9%
O=C(O)CSc1nnc(C2CC2)n1-c1ccccc1	i	-0.75	3.2%
COc1ccc(S(=O)(=O)N2CCCC(C(=O)N3CCOCC3)C2)cc1C (stereo unspecified)	i	-0.48	-1.2%
c1ccn2c(CNc3ncnc4sccc34)nnc2c1	i	-0.75	-3.0%
N=C1C(c2nc3ccccc3s2)=C(O)CN1Cc1ccco1	i	-0.79	6.1%
COc1cccc(NC(=O)c2nnn(CCc3ccccc3)c2N)c1	i	0.39	5.8%
Clc1cccc(Nc2ncnc3c2cnn3-c2ccccc2)c1	i	-0.28	1.0%
CN(C)c1cc(NC(=O)CN2CCOCC2)c2ccccc2n1	i	-0.62	3.9%
C=C(C)Cn1c(NCCOC)nc2c1c(=O)[nH]c(=O)n2C	i	-0.18	-3.3%
COc1ccccc1-n1c(CNc2ccc(F)cc2)nnc1SCC(=O)Nc1cc(C)on1	i	·	1.5%
CCOc1ccc(NC(=S)/C(=C(\[O-])c2ccc(C)c([N+](=O)[O-])c2)[n+]2ccccc2)cc1	i	·	-1.4%
CSc1ccccc1NC(=O)Nc1ccc(Cl)cc1	i	·	4.2%
O=C(/C=C/c1ccccc1)CC(O)(c1ccccc1)C(F)(F)F (stereo unspecified)	i	·	-2.3%
N#Cc1cnc(SCCc2ccccc2)nc1N	i	-0.25	-9.3%
CC(=Nc1ccc(C)c(C)c1)C1=C(O)CSC1=O	i	-0.67	-2.3%
COC(=O)[C@H](C(C)C)n1c(C)c(C(C)=O)c(C(C)=O)c1C	i	-0.27	0.5%
CS(=O)(=O)N(CC(=O)N1CCN(c2ccccc2)CC1)C1CCCCC1	i	-0.16	4.7%
CCn1c(=O)c2c3c(sc2n2c(SCc4ccc(F)cc4)nnc12)CCCC3	i	-0.65	5.7%
CCC1Cc2c(nc3c4c(nc(N5CCOCC5)c(C#N)c24)NC(C)=N3)O1 (stereo unspecified)	i	-1.4	-1.1%
C(=NCCCN1CCOCC1)c1ccc2c(c1)OCO2	i	-0.11	2.3%
Following part:
SMILES	MT1-MMP reporter	WNV NS2B-NS3 inh	Hsc70
S=C1NC2=C(C(c3ccc(Br)cc3)N1)N1CCC2CC1 (stereo unspecified)	i	·	-2.6%
CCc1nnc(NC(=O)c2cc(-c3ccccc3)nn2-c2ccccc2)s1	i	·	-1.3%
COCCn1c(C)cc(C(=O)CSc2nncn2-c2ccccc2)c1C	i	0.4	-1.8%
CN(c1ccc(C(=O)NCc2cccnc2)cc1)S(C)(=O)=O	i	0.05	0.1%
CCN(CC)S(=O)(=O)c1ccc(NC(=O)Cn2cnc3ccccc3c2=O)cc1	i	0.46	-2.1%
Cc1cc(C(=O)Nc2c(C)n(C)n(-c3ccccc3)c2=O)c(C)o1	i	-0.68	-1.5%
COc1ccc(NC(=O)c2cccnc2C(=O)O)c(OC)c1	i	·	2.3%
O=S(=O)(CCc1nnc(-c2ccccc2)o1)c1ccc2ccccc2c1	i	-0.75	0.8%
O=C(COc1ccc(Cl)cc1)Nc1nc(-c2ccc(S(=O)(=O)N3CCOCC3)cc2)cs1	i	·	0.5%
Cc1ccc(N=C2CCCN2Cc2ccccc2)c(C#N)c1	i	·	5.3%
CN1CCN(C2=C(Cl)C(=O)N(C3CCCCC3)C2=O)CC1	i	0.25	3.1%
CCOC(=O)C1CCCN(C(=O)c2ccccc2Oc2ccccc2)C1 (stereo unspecified)	i	2.7	-3.3%
Cn1c(=O)c2c3c(sc2n2c(SCc4ccccc4)nnc12)CCCC3	i	-0.05	-2.7%
Cc1cc(N2CCOCC2)nc2ccccc12	i	·	4.3%
Cc1ccc(CNC(=O)c2cc3c(=O)n4ccccc4nc3n(Cc3ccco3)c2=N)cc1	i	0.54	-26%
CC1CCCC(C)N1S(=O)(=O)c1ccc(NC(=O)CCn2cnc3ccccc3c2=O)cc1 (stereo unspecified)	i	·	1.3%
CC(C)N(C#N)c1nc(N2CCOCC2)nc(N2CCOCC2)n1	i	0.1	9.4%
Nc1nc2ccccc2n1/N=C/c1cccnc1	i	·	-2.2%
CN(C)S(=O)(=O)c1ccc(NC(=O)c2c(F)cccc2Cl)cc1	i	·	-2.2%
COc1cccc(-c2nn(-c3ccccc3)cc2C(=O)O)c1	i	-0.94	0.0%
COc1ccc(C(=O)Oc2ccc3c(c2)OCO3)cc1OC	i	1.6	4.3%
CC(C)C1CC(O)(C2(O)CCCCC2)ON1 (stereo unspecified)	i	-0.97	-4.8%
COc1ccc(C2C(C(C)=O)=C(O)C(=O)N2CCO)c(OC)c1 (stereo unspecified)	i	-0.85	1.7%
COc1cc(CNC2CCCCCC2)cc(OC)c1OC	i	0.06	-1.5%
CN(C)CCCNS(=O)(=O)c1cc(Cl)ccc1Cl	i	-0.14	3.8%
O=C(NCCCN1CCCC1)C1CCN(C(=O)c2cc3sccc3n2Cc2ccc(F)cc2)CC1	i	1.7	1.5%
Cc1oc(-c2ccc(Cl)cc2)nc1CN1CCC(C(=O)NCCCN2CCCC2=O)CC1	i	1.1	4.9%
O=C(NC1CCN(Cc2ccccc2)CC1)c1ccccc1F	i	-0.26	-15%
O=C(Cn1nc(-c2ccccc2)nc1-c1ccccc1)N1CCOCC1	i	0.7	0.5%
CN(C)S(=O)(=O)N(CCN1CCOCC1)Cc1ccccc1F	i	-1	-5.1%
Cc1occc1-c1nnc(SCC(=O)NCc2ccc3c(c2)OCO3)n1CC(C)C	i	0.95	-0.7%
Fc1ccc(N2CCN(c3ncnc4c3nnn4Cc3ccccc3Cl)CC2)cc1	i	·	2.3%
CCN1CCCC1CNC(=O)c1cc(NC(C)=O)c(N(C)C)cc1OC (stereo unspecified)	i	-0.86	-0.1%
Cc1ccc(C)c(NC(=O)C2CCCN2C(=O)OC(C)(C)C)c1 (stereo unspecified)	i	1.6	-3.7%
CC(C)C(NC(=O)C1CCCCC1)C(=O)NCc1ccccn1 (stereo unspecified)	i	-0.08	-7.0%
COc1ccc2[nH]c(=O)c(C(c3nnnn3CC3CCCO3)N3CCc4ccccc4C3)cc2c1 (stereo unspecified)	i	-1.3	-2.1%

Single entries from the entries so far.
In Hsc70, Cc1oc(-c2ccc(Cl)cc2)nc1CN1CCC(C(=O)NCCCN2CCCC2=O)CC1 reads 4.9%
In Hsc70, O=C(NCCCN1CCCC1)C1CCN(C(=O)c2cc3sccc3n2Cc2ccc(F)cc2)CC1 reads 1.5%
In Hsc70, CC(C)C(NC(=O)C1CCCCC1)C(=O)NCc1ccccn1 (stereo unspecified) reads -7.0%
In Hsc70, Fc1ccc(N2CCN(c3ncnc4c3nnn4Cc3ccccc3Cl)CC2)cc1 reads 2.3%
In WNV NS2B-NS3 inh, COc1ccc2[nH]c(=O)c(C(c3nnnn3CC3CCCO3)N3CCc4ccccc4C3)cc2c1 (stereo unspecified) reads -1.3

The listing picks up, starting 2 compounds before the break.
SMILES	MT1-MMP reporter	WNV NS2B-NS3 inh	Hsc70
CC(C)C(NC(=O)C1CCCCC1)C(=O)NCc1ccccn1 (stereo unspecified)	i	-0.08	-7.0%
COc1ccc2[nH]c(=O)c(C(c3nnnn3CC3CCCO3)N3CCc4ccccc4C3)cc2c1 (stereo unspecified)	i	-1.3	-2.1%
COc1ccccc1N1C(=O)C2C3C=CC(C3)C2C1=O (stereo unspecified)	i	-0.51	9.3%
C/C(N)=C(/C#N)C(=O)COc1ncnc2ccc(Br)cc12	i	-0.31	6.8%
CSc1nc(NCC(C)C)nc(N2CCOCC2)n1	i	-0.13	-1.5%
COc1cccc(CSc2nnc(-c3ccc(F)cc3)o2)c1	i	0.73	0.0%
